VDR inhibitor: inhibitors of human vitamin D receptor; P11473; VDR-SRC2-3 peptide fluorescence polarization, 2 h; Potency, µM, without a hit: max response, negative = inhibition, usual class: inhibitors; actives 0.93% (n = 400,000); AID 504847; active = well fitted inhibition curve with a large enough effect; also: series mostly up to about 120 µM
Target sequence (P11473 whole entry, looked up): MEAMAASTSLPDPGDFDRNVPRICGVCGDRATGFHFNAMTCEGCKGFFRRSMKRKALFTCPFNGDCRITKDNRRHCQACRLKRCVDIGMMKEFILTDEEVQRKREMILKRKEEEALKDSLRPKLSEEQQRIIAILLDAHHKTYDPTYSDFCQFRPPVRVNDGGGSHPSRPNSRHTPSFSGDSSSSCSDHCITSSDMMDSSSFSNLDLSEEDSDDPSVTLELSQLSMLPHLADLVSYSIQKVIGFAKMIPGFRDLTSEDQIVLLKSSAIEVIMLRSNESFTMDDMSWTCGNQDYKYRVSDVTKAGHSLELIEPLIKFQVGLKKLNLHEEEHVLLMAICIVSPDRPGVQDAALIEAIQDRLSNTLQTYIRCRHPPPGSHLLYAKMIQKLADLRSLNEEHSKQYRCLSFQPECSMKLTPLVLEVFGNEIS
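VDR–SRC2-3 interaction, FP format. Cmpds 23 nl via pintool, brief spin, 2 h ambient incubation.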
An asterisk follows results filed as active; [ ] = remark or other dose. % is scaled to controls: 0 for no effect and ±100 for the full control effect; potency is read from the fitted curve at half-maximal effect. Not all compounds are listed, so the mix of outcomes need not match the whole.

| Molecule | VDR inhibitor |
| --- | --- |
| CC1=C(C(=O)OCc2ccc(C)cc2)C(c2c(Cl)cccc2Cl)CC(=O)N1 (stereo not drawn) | 4% |
| C=CCN(c1ccc(C(=O)Nc2ccc3c(c2)n(C)c(=O)n3C)cc1)S(C)(=O)=O | -3% |
| COc1ccc(NC(=O)COC(=O)C2CCN(S(=O)(=O)c3cccs3)CC2)cc1 | -16% |
| COc1ccccc1C(=O)Nc1ccc(OCc2cc(=O)n3ccsc3n2)cc1 | -3% |
| CCOC(=O)c1c(NC(=O)COC(=O)CCOc2ccc(C)cc2)sc(C(=O)N(C)C)c1C | -13% |
| Cc1ccc(S(=O)(=O)N2CCOCC2)cc1C(=O)N1CCN(S(=O)(=O)c2cccc(F)c2)CC1 | -13% |
| COc1ccc(CNCCC(c2ccc(OC(C)C)cc2)c2ccccc2OC)cc1OC (stereo not drawn) | 1% |
| Cc1ccc(S(=O)(=O)/C(C#N)=C/c2c(N3CCN(Cc4ccccc4)CC3)nc3ccccn3c2=O)cc1 | 5% |

Gathered by group: those above containing nitrogen in an aromatic ring
| Molecule | VDR inhibitor |
| --- | --- |
| C=CCN(c1ccc(C(=O)Nc2ccc3c(c2)n(C)c(=O)n3C)cc1)S(C)(=O)=O | -3% |
| COc1ccccc1C(=O)Nc1ccc(OCc2cc(=O)n3ccsc3n2)cc1 | -3% |
| Cc1ccc(S(=O)(=O)/C(C#N)=C/c2c(N3CCN(Cc4ccccc4)CC3)nc3ccccn3c2=O)cc1 | 5% |

Later entries:
| Molecule | VDR inhibitor |
| --- | --- |
| CCN1CCN(Cc2ccc(NC(=O)Nc3ccccc3Cl)cc2)CC1 | -3% |
| c1ccc(N=Nc2ccc3cccccc2-3)cc1 | 19% |
| O=C(CSc1ccc(-c2ccc(Br)cc2)nn1)NC1CCCC1 | -1% |
| COc1ccccc1N1C(=O)CC(Sc2nc(C)cc(C)n2)C1=O (stereo not drawn) | 7% |
| COc1cc(NC(=O)C(C)C)ccc1NC(=O)c1ccco1 | 4% |
| CCOC(=O)C/C(C)=N/NC(=O)CN(c1ccc(Br)cc1)S(=O)(=O)c1ccccc1 | -2% |
| COc1ccc(C(=O)Nc2ccccc2-c2nnn(CC(=O)NCc3ccco3)n2)cc1 | -8% |
| O=C1C(c2ccccc2)C(c2ccccc2)NC(c2ccccc2)C1c1ccccc1 (stereo not drawn) | 7% |

The final 5 entries of the section before are carried over, then new ones follow.
| Molecule | VDR inhibitor |
| --- | --- |
| COc1ccccc1N1C(=O)CC(Sc2nc(C)cc(C)n2)C1=O (stereo not drawn) | 7% |
| COc1cc(NC(=O)C(C)C)ccc1NC(=O)c1ccco1 | 4% |
| CCOC(=O)C/C(C)=N/NC(=O)CN(c1ccc(Br)cc1)S(=O)(=O)c1ccccc1 | -2% |
| COc1ccc(C(=O)Nc2ccccc2-c2nnn(CC(=O)NCc3ccco3)n2)cc1 | -8% |
| O=C1C(c2ccccc2)C(c2ccccc2)NC(c2ccccc2)C1c1ccccc1 (stereo not drawn) | 7% |
| CCN(C(=O)CSc1nnc(C)n2c1cc1occc12)c1ccccc1 | 5% |
| CC(=O)Nc1cc(C(=O)N2CCc3ccccc3C2)ccc1Sc1ccc(C)cc1 | -2% |
| CCNC(=O)NC(=O)C(C)OC(=O)C1CCN(S(=O)(=O)c2ccc(C)c(C)c2)CC1 (stereo not drawn) | 5% |
| Cc1nn(C)c(C)c1C1C(C#N)=C(N)Oc2n[nH]c(C)c21 (stereo not drawn) | -1% |
| Cc1nonc1NC(=O)c1oc2ccccc2c1C | 21% |
| Cc1nc2cc(NC(=O)c3ccc(S(=O)(=O)N(C)c4ccccc4)cc3)ccc2o1 | 4% |
| COc1ccc(-c2ccc(SCC(=O)NCc3ccco3)nn2)cc1OC | -5% |
| CN1CCN(CCc2nc3cc(NC(=O)COc4ccc([N+](=O)[O-])cc4)ccc3n2C)CC1 | 23% |
| COc1ccc(/C=N/NC(=O)C[n+]2ccccc2)c(OC)c1OC | -12% |
| Clc1ccc(C2=NN=C3COc4ccccc4N3C2)cc1 | -12% |
| O=C(O)COc1ccc2nsnc2c1Cl | -15% |
| CCOc1ccc(S(=O)(=O)NC(=O)c2ccccc2)cc1 | -5% |
| Cc1csc(NC(=O)CCC(=O)N(CC(=O)NC2CCCC2)Cc2ccco2)n1 | -9% |
| Cc1noc(NS(=O)(=O)c2ccc(NC(=O)CCN3C(=O)c4ccccc4C3=O)cc2)c1C | 3% |
| COc1ccccc1N1CCN(C(=O)C(NS(=O)(=O)c2cccs2)c2ccccc2)CC1 (stereo not drawn) | 10% |
| O=C(CCNC(=O)N1CC(=O)Nc2ccccc21)Nc1ccc(F)c(Cl)c1 | 6% |
| CC(=O)N1CCc2cc(Br)cc(S(=O)(=O)N3CCN(c4cccc(C(F)(F)F)c4)CC3)c21 | -15% |
| O=C(O)CCCNC(=O)c1cncc(Br)c1 | 6% |
| CCOC(=O)C1=C(C)NC2=C(C(=O)c3ccccc32)C1c1cccc2ccccc12 (stereo not drawn) | -6% |
| Cc1ccc(S(=O)(=O)N2CCCC2C(=O)Nc2nccs2)cc1 (stereo not drawn) | -8% |
| O=C(c1cccc(C(=O)N2CCc3ccccc32)n1)N1CCc2ccccc21 | -13% |
| C=C(CC[C@@H](C)[C@H]1CCC2[C@]1(C)CC[C@]13C[C@@]14CCC(OC(=O)/C=C/c1ccc(O)c(OC)c1)C(C)(C)[C@@H]4CC[C@@]23C)C(C)C (stereo partly drawn) | 8% |
| S=C(N/N=C/c1cccs1)NC1CC2CCC1C2 (stereo not drawn) | -4% |
| O=C(CCCc1c[nH]c2ccccc12)N1CCN(c2ccc(N3CCOCC3)nn2)CC1 | -5% |
| O=C(COC(=O)COc1ccc(Br)cc1)NCc1ccc2c(c1)OCO2 | 1% |
| CCOC(=O)c1c(=O)n(O)c2ccc(C)cc2[n+]1[O-] | 11% |
| O=C(CSCC(=O)Nc1ccccc1)N/N=C/c1c(O)ccc2ccccc12 | 9% |
| O=C(CCCn1c(SCc2cccc([N+](=O)[O-])c2)nc2ccccc2c1=O)NCC1CCCO1 (stereo not drawn) | 14% |
| Cc1ccc(C)c(CSc2nnc(C)n3c2cc2sccc23)c1 | 9% |
| CCN(CC(=O)NCc1ccc(Cl)cc1)C(=O)/C=C/c1ccccc1 | 4% |
| CC(C)c1ccc(S(=O)(=O)N2CCN(C(=O)CCNC(=O)Nc3ccccc3)CC2)cc1 | -10% |
| NS(=O)(=O)c1ccc(CCNC(=O)CSc2nc3ccsc3c(=O)n2CCCCCC(=O)O)cc1 | 36%[activator] |
| O=C(NCC1CCCN(C(=O)c2cscn2)C1)c1ccc(-c2ccccc2)cc1 (stereo not drawn) | 5% |
| Cc1cc(C)c(C)c(S(=O)(=O)NCC(=O)NCc2ccco2)c1C | -10% |
| COc1ccc(-c2cc3c(=O)n(CC(=O)NCc4ccccc4F)ncn3n2)cc1 | -17% |
| CCOc1ccccc1NC(=O)Nc1ccon1 | 4% |
| COCCNC(=S)N/N=C/c1ccc(OCc2ccc(C(=O)OC)cc2)cc1 | -10% |
| COc1cc(OC)cc(C(=O)NNC(=O)c2ccccn2)c1 | -3% |
| Cc1ccccc1-c1nc2cc(NC(=O)Cc3ccc(Cl)cc3)ccc2o1 | 3% |
| CCN(CC)C(=O)c1c([N+](=O)[O-])c(C(C)(C)C)nn1C | 8% |
| O=C(COC(=O)c1ccccc1O)Nc1ccc2ccccc2c1 | 16% |
| CC(C)C(NS(=O)(=O)/C=C/c1ccccc1)C(=O)NCc1ccc(F)cc1 (stereo not drawn) | -3% |
| Cc1nc(N)sc1-c1csc(NCc2ccccc2)n1 | -19% |
| N#CC1=C(N)Oc2c(sc3ccccc23)C1c1ccco1 (stereo not drawn) | -9% |
| Cc1nnsc1C(=O)NNc1ccc(Cl)cc1 | -5% |
| CC1CSc2n(-c3cccc(C(F)(F)F)c3)cc(-c3ccccc3)[n+]21 (stereo not drawn) | -11% |
| CC(C(=O)O)n1c2ccccc2c2cn[nH]c(=O)c21 (stereo not drawn) | 7% |
| CCCCOC(=O)Cn1c(=O)c2c(nc(Br)n2Cc2ccccc2)n(C)c1=O | -15% |
| COC(=O)c1ccc(CSc2nc3ccccc3c(=O)n2-c2cccc(OC)c2)o1 | -11% |
| Cc1ccc(-c2ccc(=O)n(CC(=O)N3CCN(c4cc(Cl)ccc4C)CC3)n2)cc1 | -8% |
| Cc1ccc2[nH]c(=O)c(CN(Cc3cccnc3)Cc3nnnn3CCN3CCOCC3)cc2c1 | 3% |
| O=C(N/N=C/c1ccc(Br)cc1)c1ccc(NC(=O)c2ccccc2)cc1 | 5% |
| COc1ccccc1N1Cc2ccccc2C1 | -17% |
| CCC(=O)Nc1ccc(N/C(N)=N/c2nc(C)cc(C)n2)cc1 | 15% |
| O=C(NCC1CCCO1)c1c[nH]c2ccc(S(=O)(=O)Nc3ccc(F)cc3F)cc2c1=O (stereo not drawn) | -9% |
| CC1CCCCC1NC(=O)CCNS(=O)(=O)c1ccc(Cl)cc1 (stereo not drawn) | 12% |

Further structures
| Molecule | VDR inhibitor |
| --- | --- |
| O=C(Cc1cccs1)N1CCCC(c2nc3c(nnn3Cc3ccc(F)cc3)c(=O)[nH]2)C1 (stereo not drawn) | 5% |
| O=C1OC(c2ccccc2)(c2cc(Br)ccc2O)c2ccccc21 (stereo not drawn) | -4% |
| COc1ccc(OC)c(C(c2nnnn2C2CCCC2)N2CCN(c3ccccc3)CC2)c1 (stereo not drawn) | 5% |
| COCc1ccc([C@@H]2C[C@H]3CN(Cc4ccccc4C)C(=O)[C@]34CCCN24)o1 | -11% |
| CCCS(=O)(=O)c1c(S(=O)(=O)CCC)c2cnccn2c1C(=O)c1ccc(CC)cc1 | 8% |
| Cc1cc(-c2c(C(=O)N3CCOCC3)c(C)nn2-c2ccccc2)no1 | 19% |
| Cc1ccc(NC(=O)CSc2nnc(-c3nnn(-c4ccc(F)cc4)c3C)o2)cc1Br | -11% |
| O=C(O)CCC(=O)N1CCN(c2cccc(Cl)c2)CC1 | 0% |

Three structures already listed, sorted by length of the SMILES, rising:
| Molecule | VDR inhibitor |
| --- | --- |
| CCN(CC)C(=O)c1c([N+](=O)[O-])c(C(C)(C)C)nn1C | 8% |
| COc1ccc(C(=O)Nc2ccccc2-c2nnn(CC(=O)NCc3ccco3)n2)cc1 | -8% |
| Cc1ccc(S(=O)(=O)N2CCOCC2)cc1C(=O)N1CCN(S(=O)(=O)c2cccc(F)c2)CC1 | -13% |

Later entries.
| Molecule | VDR inhibitor |
| --- | --- |
| CCOC(=O)c1c(NC(=O)CSc2ncnc3ccccc23)sc(C)c1C | -17% |
| COc1cc(C2c3[nH]c4ccccc4c3C[C@H]3C(=O)N(CCO)CC(=O)N23)cc(OC)c1OC (stereo partly drawn) | 4% |
| Cc1nn2c(-c3ccco3)ccnc2c1-c1ccc(F)cc1 | 18% |
| CCN(CC)CCN(C(=O)c1ccc2c(c1)CCCC2)c1nc2ccc(OC)cc2s1 | -1% |
| CC(/C=N/NC(=O)CSc1nc(C)cc(C)n1)=C\c1ccccc1 | 1% |
| CC1CCN(C(=O)Cn2c(SCC(=O)Nc3nccs3)nc3ccccc32)CC1 | 12% |
| c1ccc2c(-c3nc(-c4ccncc4)no3)cccc2c1 | -7% |
| COc1ccc(NC(=O)CSc2nnc(CNC(=O)COc3ccc(Cl)cc3)o2)c(OC)c1 | 8% |
| CC(C)C[C@H](NC(=O)c1nc[nH]c1C(=O)N[C@@H](CC(C)C)C(=O)OC(C)(C)C)C(=O)OC(C)(C)C | 4% |
| O=C1Cc2ccccc2Sc2c(OCCN3CCCCC3)cccc21 | 6% |
| O=C(Nc1ccc(N2CCOCC2)cc1)c1cnsn1 | 3% |
| COc1ccc(CN(C(=O)CCC(=O)Nc2cc(C)on2)C(C(=O)NC(C)(C)C)c2cccc(OC)c2OC)cc1 (stereo not drawn) | -7% |
| Cc1ccc(S(=O)(=O)N(C)CC(=O)NCC(c2ccc(F)cc2)N2CCOCC2)cc1 (stereo not drawn) | -17% |
| CC(=O)c1ccc(OCC(O)CN2CCN(c3ccccn3)CC2)cc1 (stereo not drawn) | -11% |
| COc1ccc(OCc2nnc(-c3ccccc3)o2)cc1 | -3% |
| COc1cccc(NC(=O)C2CCCN2C(=O)Nc2cccc(F)c2)c1 (stereo not drawn) | 6% |
| Cc1cc(C)nc(NC(=O)c2ccc(Cl)cc2Cl)n1 | 28% |
| O=C(Nc1cccc(Cl)c1)C1CCCN1S(=O)(=O)c1cccc2cccnc12 (stereo not drawn) | -4% |
| COc1ccccc1N1CCN(c2cc(C)nc3nc(C)nn23)CC1 | -11% |
| Cc1ccc(C(=O)Nc2ccc(N3CCN(C)CC3)cc2)c(Cl)c1 | -1% |

Structural class: the compounds so far containing a tert-butyl group
| Molecule | VDR inhibitor |
| --- | --- |
| CCN(CC)C(=O)c1c([N+](=O)[O-])c(C(C)(C)C)nn1C | 8% |
| CC(C)C[C@H](NC(=O)c1nc[nH]c1C(=O)N[C@@H](CC(C)C)C(=O)OC(C)(C)C)C(=O)OC(C)(C)C | 4% |
| COc1ccc(CN(C(=O)CCC(=O)Nc2cc(C)on2)C(C(=O)NC(C)(C)C)c2cccc(OC)c2OC)cc1 (stereo not drawn) | -7% |

Assay outcomes (PubChem)
